TRPV1 PAM: potentiators of human vanilloid receptor 1 (TRPV1). TRPV1-expressing cells, Fluo-8 calcium influx, capsaicin EC20 potentiation; host cell line not named in the record; control for the full effect not named in the record. hit rate 0.02% among 320,000. Q8NER1. potentiation, % at 8.33 µM; active means potentiation above 80%; inconclusive means 30% to 80%; inactive means below 30%; note: 0% is about no effect
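Fluo-8 calcium influx in TRPV1-expressing cells, kinetic read (ex 480/em 520 nm). Compound added and read 3 min for agonist activity, followed by capsaicin at EC20 final and 2 min further read for enhancement.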
Sfp inh: inhibitors of Bacillus subtilis Sfp phosphopantetheinyl transferase | Q9F4F7 | Biochemical Sfp PPTase activity, qHTS | Potency, µM, without a hit: max response, negative = inhibition, actives largely listed as inhibitors | hit rate 3.5% among 310,000; active = well fitted inhibition curve with a large enough effect; inconclusive = small, poorly fitted or top-dose-only effect, or another doubt; inactive = no such curve, though single readings can be large or run the other way;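 note: the enzyme is Sfp with the accession as filed and its product quenches rhodamine fluorescence; potency is the fitted concentration of half-maximal effect; 0% = enzyme reaction without inhibitor and -100% = no enzyme wells; top concentration of the series not given in the record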
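Buffer: 50 mM Hepes-Na pH 7.6, 10 mM MgCl2, 0.01% Nonidet P-40, 0.01% BSA. Enzyme 15 nM, pre-exposed to compound 15 min; substrates then added and fluorescence change tracked over 30 min.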
PINK1 modulator: PINK1 expression modulation. hit rate 0.2% among 410,000. PINK1 immunofluorescence, high-content cytometry, 24 h. AID 624263. Potency, µM (top dose mostly 76.6 µM), without a hit: at the highest dose activation (PINK1 increase), usual class: activators; active = well fitted activation curve with a large enough effect; inconclusive = small, poorly fitted or top-dose-only effect; inactive = flat fitted curve, though single readings scatter; cell line not stated here;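 note: potency is the fitted concentration of half-maximal effect; % of control where 0% means no effect; nearly all actives have a fitted effect of over 65% in size; a mitochondrial uncoupler was the plate control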
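Decision-based qHTS: stable cells, 24 h exposure to five compound concentrations, CCCP as control. Fixed cells stained for PINK1 plus nuclear, mitochondrial and cell markers, cytometer read.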
D2 PAM: potentiates the human D2 dopamine receptor allosterically; P14416; DiscoveRx D2 beta-arrestin cells, luminescence, 90 min; 100% = 57 uM dopamine signal; potentiation, % (test concentration not listed); hit rate 0.23% among 360,000; active = potentiation of 50% or more; inconclusive = 30% to 50%; inactive = 30% or less;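 note: compound concentration not given in the record; tested on top of an EC20 dose of dopamine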
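PathHunter D2 cells, attached overnight at 37 deg C, received compound in DMSO plus dopamine at EC20 (50 nM final) for 90 min at 37 deg C. Beta-arrestin recruitment was read as luminescence after 1 h with detection reagent at ambient temperature.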
Six1-Eya2 inh: Six1/Eya2 interaction inhibition; activity change, % (concentration not given with the values); hit rate 0.56% among 360,000; AID 651725; Q15475+O00167; AlphaScreen GST-Six1/His-Eya2 binding, biochemical; stronger effect = lower value; control for the full effect not named in the record; in the data active = activity change below about -65%; inconclusive = about -30% to -65%; inactive = above about -30%; note: % is set by controls: 0 for no effect and ±100 for the full control effect
Target sequence (O00167 whole entry, looked up): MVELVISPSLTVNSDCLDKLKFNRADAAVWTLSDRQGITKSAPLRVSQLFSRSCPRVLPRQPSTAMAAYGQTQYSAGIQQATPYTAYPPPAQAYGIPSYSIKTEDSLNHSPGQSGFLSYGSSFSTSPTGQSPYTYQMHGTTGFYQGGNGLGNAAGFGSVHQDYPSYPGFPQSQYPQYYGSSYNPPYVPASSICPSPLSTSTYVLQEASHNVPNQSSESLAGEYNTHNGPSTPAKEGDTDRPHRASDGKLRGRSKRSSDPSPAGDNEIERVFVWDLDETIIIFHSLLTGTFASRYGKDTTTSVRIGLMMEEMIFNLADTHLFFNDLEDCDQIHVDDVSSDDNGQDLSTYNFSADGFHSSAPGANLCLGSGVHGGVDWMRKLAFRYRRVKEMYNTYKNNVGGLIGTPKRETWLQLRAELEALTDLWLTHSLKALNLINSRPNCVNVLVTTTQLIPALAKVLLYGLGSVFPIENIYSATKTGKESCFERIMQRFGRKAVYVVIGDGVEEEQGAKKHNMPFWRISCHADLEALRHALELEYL
Target sequence (Q15475 whole entry, looked up): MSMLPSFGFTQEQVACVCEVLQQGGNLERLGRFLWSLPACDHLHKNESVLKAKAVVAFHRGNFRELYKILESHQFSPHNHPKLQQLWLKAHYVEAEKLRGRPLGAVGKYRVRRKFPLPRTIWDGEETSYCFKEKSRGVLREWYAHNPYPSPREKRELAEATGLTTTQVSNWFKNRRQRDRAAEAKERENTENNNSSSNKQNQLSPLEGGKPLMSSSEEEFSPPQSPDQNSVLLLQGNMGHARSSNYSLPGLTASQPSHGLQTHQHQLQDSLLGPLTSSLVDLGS
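GST-Six1 + His-Eya2 (5X stock: 250/500 nM); Tris pH 8.0, 300 mM NaCl, 0.05% BSA, 0.02% Tween 20; GSH donor/Ni acceptor beads; 1 h 37 °C dark; AlphaScreen readout.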
D2 ag: activates the human D2 dopamine receptor. AID 624465. DiscoveRx PathHunter D2 beta-arrestin, luminescence, 90 min; 100% = 57 uM dopamine signal. P14416. hit rate 0.084% among 360,000. activation, % (test concentration not listed); in the data active = activation above about 40%; inconclusive = about 15% to 40%; inactive = below about 15%; note: compound concentration not given in the record; the text of the record calls up to 30% inactive
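DiscoveRx PathHunter D2 beta-arrestin cells (2,100/well) attached overnight, then compound-stimulated 90 min at 37 C in HBSS/10 mM HEPES/0.1% Tween-20 buffer; beta-galactosidase complementation read by luminescence after 1 h at ambient temperature. Dopamine 57 uM final (EC100) as control.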
CtBP-E1A inh: CtBP/E1A binding inhibition; activity change, % (concentration not given with the values); hit rate 0.49% among 340,000; AlphaScreen GST-E1A/His-CtBP binding, 1536-well; stronger effect = lower value; control for the full effect not named in the record; AID 651724; in the data active means activity change below about -65%; inconclusive means about -30% to -65%; inactive means above about -30%; note: % is set by controls: 0 for no effect and ±100 for the full control effect
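GST-E1A and His-tagged CtBP (125 nM each as 5X stock) were preincubated with pin-transferred compound for 2 h at 37 °C in the dark, then glutathione donor and nickel acceptor beads were added for 1 h before AlphaScreen reading.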
Starred values were filed as active, the others as inactive; u = inconclusive; x = not tested or not shown; & = joins results of further samples; [ ] = dose if it differs, or a comment.

canonical_smiles | PINK1 modulator | Sfp inh | D2 PAM | D2 ag | CtBP-E1A inh | TRPV1 PAM | Six1-Eya2 inh
COc1ccc(-c2nc3n(c(=O)c2C#N)CCS3)cc1 | 0.6% | 2% | 2 | 2.7 | 0 | -7 | -14
COC(=O)C(Cc1ccccc1)NC(=O)c1ccc(NS(=O)(=O)c2ccc3[nH]c(=O)[nH]c3c2)cc1 (stereo unspecified) | 1.6% | x | 4 | 8.2 | 0 | 8 | 1
Cn1c(=O)c2cn(-c3ccccc3)cc2n(C)c1=O | -1.8% | 4% | -8 | -4.0 | 1 | 1 | 0
CCOC(=O)c1c(-c2ccc(C)o2)csc1NC(=O)CN(C)CC(=O)Nc1ccc(C)cc1 | -0.9% | 28µM* | -15 | -5.9 | 0 | -8 | -10
Cc1nc2c(C(=O)NCCc3ccccc3Cl)c[nH]n2c(=O)c1Cl | 4.5% | 1% | 1 | -0.5 | -19 | 6 | -8
COc1ccc(NC(=O)C2CCCN2C(=O)Nc2cccc(F)c2)cc1 (stereo unspecified) | -0.5% | 18% | -7 | -2.1 | -1 | 1 | 7
CN1C(=O)SC(Nc2cccc3ccccc23)C1=O (stereo unspecified) | 0.3% | -6% | -18 | -5.3 | -1 | 25 | -2
Cc1cccc(CNc2ncnc3[nH]ncc23)c1 | 0.0% | x | -13 | 0.6 | 7 | x | 0
O=C(NCC1CCCO1)C1CCC(=O)N1Cc1ccccc1Cl (stereo unspecified) | 3.9% | 3% | -10 | 3.1 | -3 | -31 | 7
CC(=O)c1ccc(NC(=O)CSc2ccc(-c3ccc(-n4cccn4)cc3)nn2)cc1 | 3.7% | x | -2 | -1.0 | 7 | -2 | -5
COCCn1c(Cc2cccn2C)nnc1SCC(=O)NCc1ccc2c(c1)OCO2 | 0.5% | 0% | -6 | -4.4 | x | 3 | 11
Cn1cnnc1SCC(=O)Nc1ccc2ccccc2c1 | 1.5% | x | 9 | -1.6 | 6 | 3 | -1
CCc1ccc2c(CN(C)Cc3ccccc3OC)cc(=O)oc2c1 | 4.7% | 45µM* | -10 | 0.7 | 21 | 3 | 14
O=C(NCc1ccccc1Br)c1cccs1 | 2.1% | x | -7 | -4.5 | 1 | x | -4
CCOC(=O)c1c(NC(=O)C2=C(C)NC(=S)NC2c2ccc(C)cc2)sc(C)c1C (stereo unspecified) | 13% | 20µM* | -10 | -9.2 | -4 | 10 | 1
CC(=O)NCC(=O)OCC(=O)c1ccc(C)c(C)c1 | x | 17% | -4 | -3.5 | 5 | u | 2
O=C(Nc1ccccn1)c1ccc(Cl)c(S(=O)(=O)N2CCOCC2)c1 | 1.9% | -2% | 4 | 0.2 | -5 | -19 | -2
Oc1ccc(/C=N/N2CCCCC2)c(O)c1 | 1.7% | -3% | -6 | 2.5 | -20 | -2 | 0
CN(C)S(=O)(=O)c1ccc(Cl)c(NC(=O)COC(=O)/C=C/c2cnc3ccccc3n2)c1 | 2.2% | 10% | -13 | -4.9 | x | x | -7
CC1(C(=O)NS(=O)(=O)Cc2cccc(Cl)c2)CCN1C(=O)CCc1cccs1 (stereo unspecified) | -1.0% | x | -21 | -3.5 | 0 | x | 15
CCO/C=C1/C(=O)N(CC)c2ccccc21 | 0.3% | 12% | 2 | -1.2 | -5 | 0 | 8
Cc1ccc(S(=O)(=O)N2CCC[C@H]2C(=O)OCc2nc3ccccc3s2)cc1 | 1.3% | x | -4 | 0.7 | 12 | x | 3
CC1CN(C(=O)C(C)N2CCN(c3cccc(Cl)c3)CC2)CC(C)O1 (stereo unspecified) | -1.1% | 5% | -6 | 0.3 | 0 | -6 | 4
CC(C)Cc1nnc(NC(=O)CC(C)c2ccccc2)s1 (stereo unspecified) | 4.2% | 1% | -4 | -3.2 | -7 | 2 | 4
COc1cc(CC(NC(C)=O)C(=O)NC2CCN(c3nc(C)cc(C)c3C#N)CC2)cc(OC)c1 (stereo unspecified) | -1.0% | 10% | -27 | -1.4 | -2 | -2 | -11
COc1ccc(OC)c(S(=O)(=O)N2CCC(C(=O)Nc3ccc(C)c(C)c3)CC2)c1 | -2.3% | 6% | 10 | 0.2 | -2 | -5 | -7
Cc1ccccc1/C=C/c1cc[n+](C)cc1 | 2.2% | -17% | -4 | -6.3 | 8 | -4 | 1
COC(=O)c1sccc1NC(=S)N1CCN(c2cc(C)ccc2C)CC1 | 4.0% | -3% | -8 | -6.2 | -23 | 9 | -7
CC(C)N(c1ccccc1)c1ccc(NC(=O)C2CCCO2)cc1 (stereo unspecified) | 2.9% | -8% | -12 | -1.0 | 4 | 3 | 2
Cc1cc(NC(=O)COC(=O)c2cccc(O)c2)no1 | 0.3% | 15% | -26 | 2.6 | x | -6 | 0
CN(CC(=O)Nc1ccc(F)c(F)c1)S(=O)(=O)c1cccc2nsnc12 | 0.1% | 11% | -5 | -1.7 | -7 | 4 | -8
O=C(/C=C/c1ccccc1[N+](=O)[O-])N1CCN(C(=O)c2ccco2)CC1 | -0.6% | -15% | 2 | -1.5 | 0 | -5 | 16
O=C(NCc1ccco1)c1ccc(N2CCCC2=O)cc1 | 0.6% | 9% | 26 | 1.0 | 2 | -1 | 2
CCCn1c(NCc2ccccc2NS(=O)(=O)c2ccc(C)cc2)nc2ccccc21 | 0.6% | 6% | -8 | -1.0 | -5 | 20 | -2
C/C(=N\NC(=O)COc1ccc(C)cc1[N+](=O)[O-])c1ccc2c(c1)OCCO2 | 9.6% | x | -13 | 1.4 | 0 | x | 0
COc1cc(C(C)=O)ccc1OC(=O)CN1C(=O)c2ccccc2C1=O | -1.5% | -2% | -4 | 1.4 | -19 | 1 | -1
O=C(CCl)c1ccc(Cc2ncc(C(F)(F)F)cc2Cl)s1 | -3.4% | -20% | -30 | -7.1 | 16 | 8 | 2
COc1ccc(-c2nc(SCC(=O)Nc3cc(C)on3)n[nH]2)cc1 | -0.9% | 0% | 0 | 2.5 | -4 | 9 | -4
O=C(c1ccc(NS(=O)(=O)c2cccc(F)c2)cc1)N1CCCCC1 | 0.3% | 12% | -2 | -0.3 | 5 | -3 | 7
CCN=C1SC(C(=O)Nc2cccc(Cl)c2)CC(=O)N1CC (stereo unspecified) | 6.2% | -14% | 1 | -2.5 | 7 | -18 | -3
CCOC(=O)N1CCN(C(=O)CN(C2CCCCC2)S(C)(=O)=O)CC1 | 0.1% | 14% | 3 | -2.7 | 0 | 13 | 0
C=CCn1c(SCc2nc3ccccc3[nH]2)nnc1-c1ccc(OC)cc1 | -2.8%[38.3 µM] | -1% | -7 | -0.1 | 1 | -11 | -1
O=C(COC(=O)c1c2c(nc3ccccc13)CCCCC2)NCc1ccc2c(c1)OCO2 | -2.0% | -27% | -5 | -0.5 | -17 | 4 | -12
CCN1CCN(c2ccc(S(=O)(=O)N3CCCCC3)cc2NC(=O)C(C)Oc2ccc(F)cc2)CC1 (stereo unspecified) | 3.1% | x | -34 | -4.8 | -1 | -35 | -15
CC(C)OCC(O)CS(=O)(=O)Cc1ccccc1 (stereo unspecified) | 1.1%[38.3 µM] | 17% | -5 | -3.1 | 40 | -6 | 1
CC(=O)c1c(C)oc2ccc(O)c(CN3CCOCC3)c12 | -2.7% | 17% | -10 | -3.4 | -2 | -18 | 1
COc1cc(C(=O)N(C)CCOc2ccc(C)cc2)ccc1OC1CCN(C(C)=O)CC1 | 1.3% | 4% | -1 | 10 | 1 | 7 | 5
O=C(CCn1nnc(-c2cccs2)n1)NCc1ccccc1Cl | 0.2%[38.3 µM] | 5% | -4 | 0.7 | -19 | 0 | 2
Cc1cc(=O)c2c(=O)[nH][nH]c2[nH]1 | 0.8% | x | -4 | -6.1 | 2 | x | -3
Cc1ccc(CNC(=O)C2CCC(=O)N(C3CCCC3)C2)c(F)c1F (stereo unspecified) | -0.1% | 9% | 1 | 4.1 | 9 | -24 | 4
COc1nc(-c2ccccc2)ccc1-c1noc(COc2ccccc2)n1 | -1.4% | -23% | -25 | -7.3 | 44 | -12 | 32
C=CCn1c(SCC(=O)/C(C#N)=C(\C)N)nc2sc(CC)cc2c1=O | -2.0%&0.9% | -10% | -3&0 | 3.4&-2.2 | 10&1 | -11 | -5&0
O=C(NCCCn1ccnc1)Nc1ccc2c(c1)OCO2 | -0.2% | -13% | -2 | -4.2 | -25 | 6 | -10
Nc1nc(CN2CCN(c3ccccc3)CC2)nc(N2CCCc3ccccc32)n1 | u | 1% | 54* | u | -12 | -1 | -14
S=C(NNc1ccnc2cc(Cl)ccc12)Nc1ccccc1Cl | u | u | 5 | u | -16 | -21 | -28
CC(=O)c1c(C)[nH]c(C(=O)CSc2nc3ccccc3n2C)c1C | 7.1% | 13% | 15 | -3.7 | -3 | 2 | -2
CCN(CC)CCCn1c(C)cc2c(c1=O)C(c1ccccc1)C(C#N)=C(N)O2 (stereo unspecified) | -0.4% | 9% | -19 | -3.9 | -5 | -9 | -14
CN(CC(=O)NCc1ccccc1F)S(=O)(=O)c1ccc(Cl)cc1 | 0.2% | -3% | -14 | 0.7 | x | -17 | 10
CCN(CC)S(=O)(=O)c1ccc(N2CCOCC2)c(NC(=O)c2nn(C(C)C)c(=O)c3ccccc23)c1 | 1.8% | x | -12 | -2.3 | -16 | x | -3
Cc1nnsc1S(=O)(=O)c1ccccc1 | 3.6% | 11% | -4 | -0.4 | 5 | -2 | 15
COc1cc(-c2cc(=O)c3c(C)cc(O)cc3o2)cc(OC)c1OC | -1.8% | x | -5 | 1.5 | -11 | x | -11
COc1ccc(COC(=O)c2cccc(S(=O)(=O)N3CCCC3)c2)cc1F | 0.2% | 13% | -9 | -2.9 | 9 | 6 | -4
COc1cccc(NC(=O)CSc2nnc(-c3cccc(OC(C)C)c3)n2N)c1 | 0.6% | 2% | -10 | 1.5 | 1 | 17 | 3

Single records (already shown):
Entry for `COc1cccc(NC(=O)CSc2nnc(-c3cccc(OC(C)C)c3)n2N)c1` = PINK1 modulator: 0.6%; Sfp inh: 2%; D2 PAM: -10; D2 ag: 1.5; CtBP-E1A inh: 1; TRPV1 PAM: 17; Six1-Eya2 inh: 3
Entry for `COc1nc(-c2ccccc2)ccc1-c1noc(COc2ccccc2)n1` = PINK1 modulator: -1.4%; Sfp inh: -23%; D2 PAM: -25; D2 ag: -7.3; CtBP-E1A inh: 44; TRPV1 PAM: -12; Six1-Eya2 inh: 32
